BJeLR viability = MLPCN primary cell-based screen for lethality selective to Ras in HRASV12 cells; BJeLR (HRASV12) viability, CellTiter-Glo ATP luminescence, 48 h; reference of the scale not given here; inhibition, % (no concentration beside the values); hit rate 0.17% among 300,000; AID 1554, 2009;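 active = replicate mean above 50%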;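 also: 50 nL library stock added to about 25 µL; numbers are from one replicate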
RN4220 kill = growth inhibition of S. aureus RN4220, primary screen, OD600; 16 h; inhibition, % (test concentration not listed); hit rate 0.33% among 330,000;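 active = z-score of -3 or lower and OD600 up to 0.18 on both plates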;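 also: plate controls were untreated cells for no effect and reference antibiotic for full effect; stock transfer was 100 nL into about 80 µL; one replicate is shown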
Autofluor counter = flagged as autofluorescent in microsphere protease counterscreen. compound autofluorescence counterscreen, microsphere flow cytometry; stronger effect = higher value. hit rate 3.1% among 360,000. fluorescence intensity (no concentration beside the values). AID 624483;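 active = at least 3 SD above the mean of all compounds, about 16000 in these data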;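 also: 100 nL of 1 mM stock went into each well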
PrP UTR inh = inhibition of PrP 5' UTR reporter expression; cell-based PrP 5' UTR mRNA reporter, plate reader; inhibition, % (no concentration beside the values); hit rate 0.35% among 340,000; AID 488862, 2010;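 active = every replicate at 50% or more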;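 also: 0 = median of the neutral control wells; tested in H4 reporter cells; numbers are from one replicate; inactives centre near -14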
ugtP null kill = growth inhibition of ugtP-null S. aureus, primary screen, RN4220 ugtP deletion, OD600. growth inhibition, % (concentration not given with the values). AID 1259309, 2017. 16 h; some inactives read as strong as hits. hit rate 0.54% among 330,000;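 active = z-score under -3 and OD600 up to 0.15 on both plates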;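 also: plate controls were untreated wells for no effect and antibiotic for full effect; wells of about 80 µL received 100 nL stock; the first replicate is given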
Mtb hypoxia inh = PubChem AID 1159583; hit rate 0.1% among 300,000; M. tuberculosis hypoxia-regulated fluorescent reporter, fluorescence; fluorescence inhibition, % (test concentration not listed);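 active = 35 to 45% if threefold the growth effect, above 45% if 1.5-fold the growth effect; inactive = the rest, general growth blockers included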;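 also: wells of about 50 µL received 100 nL stock; 0% = vehicle wells and 100% = reference inhibitor wells; whole bacteria with a GFP reporter of the hypoxia response; strong numbers were not always called active; many hits fall short of the cut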
Mtb hypoxia inh growth = also measured in Mtb hypoxia inh; calls as there; growth inhibition, %; measured here: M. tuberculosis growth (absorbance);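 0% = vehicle and 100% = reference antibiotic; read after six days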
Starred values were filed as active, the others as inactive; . = not tested or not shown.

SMILES	BJeLR viability	RN4220 kill	Autofluor counter	PrP UTR inh	ugtP null kill	Mtb hypoxia inh	Mtb hypoxia inh growth
Cc1ccc(NC(=O)c2ccc(Cl)c(N3C(=O)C=CC3=O)c2)cc1	13	9.4	2615	-9	13	.	.
C#CCOCCOCCOCCNc1nc(N2CCN(C(=O)C(CCCCN)n3cc(C(N)CC(N)=O)nn3)CC2)nc(N2CCN(C(=O)C(CCCCN)n3cc(C(N)CC(N)=O)nn3)CC2)n1 (stereo not drawn)	.	4.7	.	.	-7	9	10
CC(=O)c1cccc(NC(=O)c2c(F)c(F)c(F)c(F)c2F)c1	14	2.3	2799	3	-7	10	-3
C/C=C\C=C/C(=O)Nc1cccc(C2=NOC3(C2)C[C@H](C(N)=O)N(C(=O)Cc2ccc([N+](=O)[O-])cc2)C3)c1 (stereo partly drawn)	2	.	4221	-18	.	.	.
CCCOc1ccc(/C=C/C(=O)NC2CCCCC2)cc1	9	2.6	3629	-18	11	0	1
CCCCn1c(N)c(N(CC(C)C)C(=O)COc2cc(C)ccc2Cl)c(=O)[nH]c1=O	.	-0.5	.	10	-1	-3	-6
Cc1c(OCC(=O)NCCCN2CCOCC2)ccc2c3c(c(=O)oc12)CCCC3	4	-0.7	5097	-7	1	12	7
S=C(NN=Cc1ccc2c(c1)OCO2)NN=Cc1ccc2c(c1)OCO2	.	10	3419	-30	-3	6	4
O=Nc1c(O)c2ccccc2c2ccccc12	2	100*	4370	-65	99*	11	21
COc1ccc(NC(=S)N(CCc2c(C)[nH]c3ccc(C)cc23)Cc2cccnc2)cc1	2	9.8	4456	-5	11	7	7
CC(C)Cc1nnc(NC(=O)CCC(=O)NC2CC2)s1	-8	2.2	5817	-2	0	8	-4
O=C(CSc1nnnn1-c1cccc2c1CCCC2)N1CCCCC1	4	4.1	5264	-9	-4	15	6
CC(C)[C@H](NC(=O)N1CC(=O)Nc2ccccc21)C(=O)N[C@H](C(=O)O)c1ccccc1	-2	-3.4	5598	6	-8	-8	-6
NS(=O)(=O)c1ccc(CCNC(=O)c2cnc(Cl)c(Cl)c2)cc1	-15	2.3	5852	-10	7	-3	-4
CCOC(=O)c1c(S(=O)(=O)N2c3ccccc3CC2C)c(C)n(C)c1C (stereo not drawn)	-4	1.4	5488	-25	3	3	5
Cc1cccc(OCc2nnc(SCC(=O)O)n2-c2ccccc2)c1	-3	3.6	3828	-19	12	0	-2
O=C(NC1CCCCC1)C(=S)NCCc1ccccc1	2	-3.4	4039	-27	1	5	3
Cc1cc(Oc2ccc(Cl)cc2)nc(-c2ccccc2O)n1	-4	-5.8	3024	-1	0	-2	11
Cc1ccc(S(=O)(=O)CCC(=O)OC(C)C(=O)NC2CCCCC2C)cc1 (stereo not drawn)	1	.	5508	-10	.	.	.
CCN(C(=O)CSc1ncccn1)C1CCS(=O)(=O)C1 (stereo not drawn)	-1	0.6	5914	-5	11	13	-2
CCOc1ccccc1OCCOCCOc1c(Cl)cccc1Cl	-2	9.6	2003	-16	13	6	-3
CSC1=NC(C)(C)C=C(/C=C/c2ccc(Cl)cc2)N1	-4	-1.3	4533	2	-11	-7	-7
Cc1cccc(NC(=O)Nc2cccc(Oc3c(F)c(F)c(F)c(F)c3F)c2)c1	1	-0.6	8001	-22	0	14	4
CC(C)C(=O)Nc1nnc(S(=O)(=O)N2CCc3ccccc32)s1	-1	6.4	4641	-22	-18	-2	6
Cc1ccc(C2=NOC(C)(c3nnc(-c4ccccc4)o3)C2)cc1 (stereo not drawn)	2	1.3	3679	-17	-8	16	20
O=[N+]([O-])c1ccc(OCCn2cncn2)cc1	0	3.0	4054	-9	2	15	-5
CC(C)OCCCNC(=O)c1ccc(CS(=O)(=O)c2cccc(C(F)(F)F)c2)o1	1	2.7	2816	-20	5	7	1
CCOCCCNC(=O)c1ccc2c(=O)n(Cc3ccc(OC)cc3)c(=O)[nH]c2c1	-2	1.6	3513	-12	1	12	2
CC1(C)Oc2ccc3ccc(=O)oc3c2/C(=C/NNC(N)=O)C1=O	-14	1.4	3224	-18	8	15	8
COc1cc(C(=O)OCC#N)ccc1OCc1c(C)noc1C	15	1.3	4957	-13	9	5	-5

A different layout for part of the listing above:
CCCOc1ccc(/C=C/C(=O)NC2CCCCC2)cc1
- BJeLR viability: 9
- RN4220 kill: 2.6
- Autofluor counter: 3629
- PrP UTR inh: -18
- ugtP null kill: 11
- Mtb hypoxia inh: 0
- Mtb hypoxia inh growth: 1
CCCCn1c(N)c(N(CC(C)C)C(=O)COc2cc(C)ccc2Cl)c(=O)[nH]c1=O
- BJeLR viability: .
- RN4220 kill: -0.5
- Autofluor counter: .
- PrP UTR inh: 10
- ugtP null kill: -1
- Mtb hypoxia inh: -3
- Mtb hypoxia inh growth: -6
Cc1c(OCC(=O)NCCCN2CCOCC2)ccc2c3c(c(=O)oc12)CCCC3
- BJeLR viability: 4
- RN4220 kill: -0.7
- Autofluor counter: 5097
- PrP UTR inh: -7
- ugtP null kill: 1
- Mtb hypoxia inh: 12
- Mtb hypoxia inh growth: 7
S=C(NN=Cc1ccc2c(c1)OCO2)NN=Cc1ccc2c(c1)OCO2
- BJeLR viability: .
- RN4220 kill: 10
- Autofluor counter: 3419
- PrP UTR inh: -30
- ugtP null kill: -3
- Mtb hypoxia inh: 6
- Mtb hypoxia inh growth: 4

Further entries.
SMILES	BJeLR viability	RN4220 kill	Autofluor counter	PrP UTR inh	ugtP null kill	Mtb hypoxia inh	Mtb hypoxia inh growth
CC(C)(C)c1ccc(S(=O)(=O)N2CC(C(=O)O)Oc3ccc(Cl)cc32)cc1 (stereo not drawn)	1	17	4207	-5	-7	8	-1
CN(C)CC(C)(C)CNS(=O)(=O)c1ccc(Cl)cc1	-7	4.4	4259	-20	3	-5	10
CSS(=O)(=O)c1cccc2cccnc12	5	-0.2	3862	-19	2	6	2
CCc1noc(C)c1C(=O)N1CCN(S(=O)(=O)c2ccc(Br)cc2)CC1	12	-0.9	6305	-20	2	-6	5
O=c1nc(N2CCOCC2)ccn1-c1nc(-c2ccccc2)sc1-c1ccccc1	-4	11	4642	-15	6	5	7
CC(OC(=O)c1cccc(NS(C)(=O)=O)c1)C(=O)Nc1ccc2c(c1)OCO2 (stereo not drawn)	.	-2.4	5361	-31	4	3	4
CCOC(=O)C(CCCOc1ccc(C(C)CC)cc1)C(=O)OCC (stereo not drawn)	14	-2.4	4647	-1	4	.	.
O=C(CN(CC1CCCO1)S(=O)(=O)c1ccc(S(=O)(=O)NC2CC2)cc1)Nc1ccccc1 (stereo not drawn)	6	0.8	2779	-56	-6	.	.
COc1cc(OC)c2c(c1)OC(=O)CC2c1cc(OC)c(OC)c(OC)c1 (stereo not drawn)	.	2.9	3573	-12	1	-2	5
C=CCn1c(=O)c2c(nc(Br)n2Cc2ccccc2Cl)n(C)c1=O	-10	0.8	3390	-24	2	.	.
Cc1cc(C)c(OCC(=O)N(Cc2ccc(N(C)C)cc2)C2CCS(=O)(=O)C2)c(C)c1 (stereo not drawn)	-5	1.7	4211	-7	-3	-4	-3
CN(C)CCCNC1=CC(=O)CC(c2ccccc2)C1 (stereo not drawn)	3	0.1	3814	-33	6	-2	3
CN(C(=O)CSc1nnc(-c2ccccc2)c(-c2ccccc2)n1)C1CCS(=O)(=O)C1 (stereo not drawn)	-9	-1.2	10333	-17	6	-1	3
O=C1NC(=S)NC(=O)C12C(c1ccc(F)cc1)NC(=S)NC2c1ccc(F)cc1 (stereo not drawn)	-8	2.7	9365	-7	0	4	0
Cc1ccc(C(=O)NC(=S)Nc2ccc(S(=O)(=O)N3CCN(C)CC3)cc2)cc1	-3	-0.3	2687	-6	77	.	.
O=C(NC1CCCN(CCc2ccccc2)C1)c1c[nH]c2ccccc12 (stereo not drawn)	2	1.2	3565	-26	2	-2	-4
CCC1=NN(C(=O)c2cccc([N+](=O)[O-])c2)C(O)(c2ccc(C)cc2)C1 (stereo not drawn)	1	2.5	3420	-31	17	13	12
CC1Cc2cc(/C(O)=C3/C(=O)C(=O)N(CCN4CCOCC4)C3c3cccc(Cl)c3)ccc2O1 (stereo not drawn)	2	.	3253	-1	.	.	.
O=C1CN(c2ccc(Br)cc2)C(=O)N1CC(=O)N1CCCc2ccccc21	-5	2.6	6692	-26	6	19	5
O=C(NCC(c1ccco1)N1CCc2ccccc2C1)c1ccccc1 (stereo not drawn)	11	3.4	5694	-52	2	-5	-1
O=C(Nc1cccnc1)Nc1cccc(F)c1	-5	2.7	4182	6	-3	1	1
CCCN(CC(=O)Nc1ccccc1C)C(=O)C1CC(=O)N(c2ccccc2C(C)CC)C1 (stereo not drawn)	.	2.9	9189	-10	0	0	2
CCC(C(=O)NC1CCCC1)n1nc(C)n2c(cc3occc32)c1=O (stereo not drawn)	-3	3.1	4982	-17	8	11	6
O=C(C(c1ccccc1)c1ccccc1)N1CCCc2ccccc21	-4	1.5	3566	-21	7	.	.
O=C(Nc1ccccc1Oc1ccccc1)C1=COCCO1	-12	1.4	5780	-10	3	7	6
CCN(CC)S(=O)(=O)c1cccc(NC2=NCC(C)S2)c1 (stereo not drawn)	1	7.7	3969	-19	5	-2	-4
COc1ccc(-n2ncc3c(NCc4ccc5c(c4)OCO5)ncnc32)cc1	-7	4.0	5733	-51	-3	-1	7
Cc1cc(=O)n2cc(-c3ccccc3)nc2[nH]1	5	2.4	5416	-60	-7	1	10
O=C(O)c1sccc1Oc1ccc(F)cc1[N+](=O)[O-]	5	.	4923	-22	.	.	.
CC(=O)c1ccc(N2CCN(CC(=O)Nc3cc(C)on3)CC2)cc1	0	9.1	4180	-22	5	-2	4
CCCCCNC1=CC(=O)CC(c2ccccc2)C1 (stereo not drawn)	-3	-1.8	3230	-14	-1	.	.
CCOc1ccccc1N1CCN(C(=O)NC(C)c2ccc(F)c(F)c2)CC1 (stereo not drawn)	3	-0.9	3593	-37	7	17	9
CCCc1nnc(NC(=O)CN2C(=O)C3C4C=CC(C4)C3C2=O)s1 (stereo not drawn)	-7	1.3	4791	-23	0	17	8
CCOC(=O)c1ccc(NC(=O)CCc2c(C)nc3ncnn3c2C)cc1	3	2.2	8024	-4	8	5	1
COC(=O)c1ccc(Nc2ccc3nonc3c2[N+](=O)[O-])cc1	-1	3.3	3952	-3	6	-2	-1
CCN(Cc1ccccc1)S(=O)(=O)c1ccc(OC)cc1	-9	4.8	3403	-13	15	-5	10
CNC(=O)c1cc2c(s1)CCCCCC2	-7	7.3	10973	-64	-9	7	9
CCOc1ccc(OCC)c(NC(=O)CSCCc2ccccn2)c1	-9	2.4	3585	-13	-1	-6	0
C=C1C(=O)O[C@@H]2C[C@@H](C)[C@H]3C=CC(=O)[C@]3(O)C[C@@H]12	66*	.	3938	-7	.	.	.
C/C(=N\NC(=O)CCc1c[nH]c2ccccc12)c1ccc([N+](=O)[O-])cc1	-1	.	2422	3	.	.	.
CC(C)[C@H](NC(=O)N1CC(=O)Nc2ccccc21)C(=O)N1CCC(C(=O)O)CC1	4	-2.0	5193	-19	-5	-5	1
O=C1NC(=O)N(CCc2ccc(F)cc2)C(=O)/C1=C\C=C\c1ccccc1	.	7.7	4266	-16	27	-14	-7
Cc1nnc(SCC(=O)NCc2cccs2)n1-c1ccccc1	0	1.5	8288	-8	4	5	7
O=C(NCCCN1CCOCC1)C(c1ccccc1)c1ccccc1	7	0.8	3164	-27	5	12	-2
CC(C)(CSc1nncn1N)NS(=O)(=O)c1ccc(Cl)cc1	-4	-3.7	2543	-7	5	.	.
COc1cc2c(cc1OC)[C@H](C)N(C(=O)NCc1ccccc1)CC2	2	-0.8	3048	2	1	10	-3
O=C(NCc1ccc2c(c1)OCO2)c1ccc(CS(=O)(=O)c2cccc(C(F)(F)F)c2)o1	-7	5.4	9545	-6	-2	10	0
O=C(c1cc(-c2ccc(O)cc2)on1)N1CCc2ccccc2C1	6	-1.1	6107	-25	5	.	.
CCC(C(=O)Nc1c(C)cc(C)cc1C)N1CCCCCC1 (stereo not drawn)	-4	4.2	3658	-7	2	-3	6
O=C(N/N=C/c1cccs1)c1cnccn1	-5	.	2065	0	.	.	.
S=c1nc[nH]c2c1[nH]c1ccc(Cl)cc12	9	3.5	5202	-15	8	8	-4

Screens from PubChem.

Rows were taken by chance (roughly 4% active in at least one column).
